# Compound activity as filed in PubChem.
# D2 agonist = Beta-Arrestin HTS for Positive Allosteric Modulators of the Human D2 Dopamine Receptor: Agonists. D(2) dopamine receptor (Homo sapiens), P14416. DiscoveRx PathHunter D2 beta-arrestin, luminescence, 90 min; 100% = 57 uM dopamine signal. activation, % (test concentration not listed). 0.084% of 360,000 active; in the data active = activation above about 40%; inconclusive = about 15% to 40%; inactive = below about 15%; further: compound concentration not given in the record; the text of the record calls up to 30% inactive
# Target sequence (P14416 whole entry, looked up): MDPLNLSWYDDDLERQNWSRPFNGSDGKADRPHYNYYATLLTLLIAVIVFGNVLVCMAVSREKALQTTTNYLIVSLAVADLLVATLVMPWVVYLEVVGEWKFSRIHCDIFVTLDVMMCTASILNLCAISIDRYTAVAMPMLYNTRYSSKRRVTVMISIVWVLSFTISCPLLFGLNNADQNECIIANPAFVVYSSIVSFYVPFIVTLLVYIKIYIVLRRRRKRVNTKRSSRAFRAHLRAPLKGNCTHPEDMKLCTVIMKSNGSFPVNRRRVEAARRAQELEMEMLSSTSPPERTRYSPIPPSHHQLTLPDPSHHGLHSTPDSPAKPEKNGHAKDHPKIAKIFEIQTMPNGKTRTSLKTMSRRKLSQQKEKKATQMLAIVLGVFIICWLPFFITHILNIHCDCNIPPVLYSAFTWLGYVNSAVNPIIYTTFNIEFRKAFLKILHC
#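 Agonist mode: compounds alone added to overnight-plated D2 PathHunter cells for 90 min at 37 C, with 57 uM final dopamine (EC100) defining full response. Beta-arrestin recruitment detected by chemiluminescent reagent, read after 1 h at ambient temperature.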
# gsp antagonist = qHTS for Antagonists of gsp, the Etiologic Mutation Responsible for Fibrous Dysplasia/McCune-Albright Syndrome: qHTS; 0.4% of 340,000 active; Potency, µM (titrated, usually from 76.9 µM), without a hit: at the top dose activity change, negative = inhibition, most hits filed as inhibitors; AID 624288, 2012; gsp-mutant cells, cAMP HTRF, 30 min; control for the full effect not named in the record; active = falling curve of any shape with a large fitted effect; inconclusive = falling curve, mostly with a smaller effect; inactive = flat or rising curve; cell line not stated here;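 further: intracellular cAMP measured with PDE inhibitor Ro 20-1724 present during compound exposure; potency means the concentration at half of the fitted maximal effect; on the % scale 0 is the no-effect control and ±100 the full control effect; nearly all actives have a fitted effect of over 65% in size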
#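 Cells, 2000/well, grown 16–24 h in DMEM 10% FBS with 0.5 mg/ml G418, then compounds plus […] (300 uM addition stock), 30 min at 37C. cAMP read by HTRF (cAMP-d2 and anti-cAMP antibody-K in lysis buffer) after 30 min RT.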
# ClpP mod = qHTS Assay for Activators of ClpP | ATP-dependent Clp protease proteolytic subunit (Bacillus subtilis (strain 168)), P80244 | purified B. subtilis ClpP, FRET peptide cleavage, 20 min | Potency, µM (doses to about 57.5 µM), without a hit: at the top dose activity change, negative = active | 1.9% of 340,000 active; active = well fitted falling curve with a large enough effect; inconclusive = small, poorly fitted or top-dose-only effect; inactive = no such curve, though single readings can be large or run the other way; further: potency means the concentration at half of the fitted maximal effect; the source files actives as falling curves though it sought activators and does not explain the sign; nearly all actives have a fitted effect of over 65% in size; many hits overshoot -100%
# Target sequence (P80244 whole entry, looked up): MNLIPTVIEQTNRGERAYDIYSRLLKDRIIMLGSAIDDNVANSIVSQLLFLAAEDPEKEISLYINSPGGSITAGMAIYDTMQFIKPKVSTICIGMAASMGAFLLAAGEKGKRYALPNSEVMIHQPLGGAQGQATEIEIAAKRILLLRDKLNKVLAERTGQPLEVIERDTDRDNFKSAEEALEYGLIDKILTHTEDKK
#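 Purified B. subtilis ClpP, 10 microg/mL final in Tris/HCl pH8 with KCl, BSA, glycerol and Tween-20, cleaved an Abz/nitrotyrosine-quenched decapeptide. Fluorescence (ex 320, em 430) was read at 0 and 20 min at room temperature. Delta was normalized to 5.8 microM ADEP and DMSO/no-enzyme controls.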
# Sfp inh = qHTS Assay for Inhibitors of Bacillus subtilis Sfp phosphopantetheinyl transferase (PPTase). 4'-phosphopantetheinyl transferase ffp (Bacillus subtilis), Q9F4F7. Biochemical Sfp PPTase activity, qHTS. Potency, µM, for inactives: max response, negative = inhibition, usual class: inhibitors. 3.5% of 310,000 active. AID 1490, 2009; active means well fitted inhibition curve with a large enough effect; inconclusive means small, poorly fitted or top-dose-only effect, or another doubt; inactive means no such curve, though single readings can be large or run the other way;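 further: the enzyme is Sfp with the accession as filed and its product quenches rhodamine fluorescence; potency means the concentration at half of the fitted maximal effect; 0% = enzyme reaction without inhibitor and -100% = no enzyme wells; top concentration of the series not given in the record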
#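 After 15 min at room temperature with compound, 15 nM Sfp received 5 uM rhodamine-CoA plus 12.5 uM BHQ-2-ybbR (50 mM Hepes pH 7.6, 10 mM MgCl2). Rate came from the fluorescence difference over 30 min, ex 525/em 598 nm.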
# PINK1 modulator = A Quantitative High throughput Screen to Identify Chemical Modulators of PINK1 Expression. Potency, µM (titrated, usually from 76.6 µM), for the others: top-dose activation (PINK1 increase), hits mostly activators. AID 624263, 2012. PINK1 immunofluorescence, high-content cytometry, 24 h. 0.2% of 410,000 active; active = well fitted activation curve with a large enough effect; inconclusive = small, poorly fitted or top-dose-only effect; inactive = flat fitted curve, though single readings scatter; cell line not stated here;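 further: potency means the concentration at half of the fitted maximal effect; % of control where 0% means no effect; nearly all actives have a fitted effect of over 65% in size; a mitochondrial uncoupler was the plate control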
#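 Stable cell line, 250 cells/well, 12 h attachment; compounds pinned at 5 concentrations, 24 h; CCCP control. Fixed with nuclear dye, primary antibodies 12 h at 10 degrees C, secondary plus cell stain; laser-scanning cytometer read.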
# Menin MLL FP FL = qHTS Assay for Inhibitors Targeting the Menin-MLL Interaction in MLL Related Leukemias: Competition With Fluorescein Labeled MLL-derived Peptide. AID 1766, 2009. 290,000 tested, under 10 active. Fluorescence polarization, fluorescein-MLL peptide displacement from menin. FP activity change, % at 61.4 µM; inconclusive = falling polarisation curve, or a change in total fluorescence; inactive = total fluorescence flat and polarisation flat or rising; no compound was filed as active; the % refers to the polarisation; negative = inhibition;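 further: % of control where 0% means no effect; inhibitors lower the polarisation; unlabelled MLL peptide was the positive control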
# gsp ag = qHTS for Agonist of gsp, the Etiologic Mutation Responsible for Fibrous Dysplasia/McCune-Albright Syndrome: qHTS. gsp mutant cells, cAMP HTRF, 30 min; control for the full effect not named in the record. AID 624287, 2012. Potency, µM (highest dose often 76.9 µM), for the others: at the top dose activation (cAMP increase), usual class: activators. 0.13% of 340,000 active; active = well fitted activation curve with a large enough effect; inconclusive = small, poorly fitted or top-dose-only effect, or another doubt; inactive = no such curve, though single readings can be large or run the other way; cell line not stated here;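 further: phosphodiesterase inhibitor Ro 20-1724 added with compounds to block cAMP breakdown; potency means the concentration at half of the fitted maximal effect; nearly all actives have a fitted effect of over 60% in size; about a fifth of the inactives were tested at one dose only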
#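 Cells in DMEM/10% FBS with G418 were pretreated with compounds in DMSO plus […] (300 uM stock) for 30 min at 37C. cAMP was measured by HTRF (cAMP-d2 plus anti-cAMP antibody-K) after 30 min at room temperature.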
# Starred values were filed as active, the others as inactive; ? = inconclusive; . = not tested or not shown; [ ] = remark or other dose.
SMILES,D2 agonist,gsp antagonist,ClpP mod,Sfp inh,PINK1 modulator,Menin MLL FP FL,gsp ag
C=CCn1c(SCc2cc(=O)n3cc(C)ccc3n2)nnc1-c1cccc(C)c1,-2.4,-25%,-0.7%,-10%,0.3%,8.0,15%[15.4 µM]
COc1ccc(C(=O)Nc2cccc3ccccc23)cc1,1.2,3%,.,18%,2.0%,-4.6,-73%[inhibitor]
CCc1c(C)sc(NC(=O)Cn2nc(C)c([N+](=O)[O-])c2C)c1C(N)=O,-1.8,2%,.,11µM*,7.2%,2.3,-1%[15.4 µM]
COc1ccc(OCc2cc(C(=O)N(C)Cc3nccn3C)no2)c2ccccc12,2.1,-18%,-3.0%,1%,-0.4%,2.8,-57%[inhibitor]
CN(CCO)c1cc(N2CCN(C(=O)c3ccco3)CC2)c2nonc2c1[N+](=O)[O-],-1.4,13%,0.7%,5%,0.3%,3.3,?
O=C(C1CCCN(S(=O)(=O)c2ccccc2)C1)N1CCCCC1 (configuration not stated),-2.0,-10%,0.2%,13%,0.1%,-1.4,-16%
CC(C)Cn1c(=O)c(C(=O)Nc2ccncc2)c(O)c2ccccc21,-1.7,-3%,?,.,7.2%,.,-21%
CCCC(=O)NC(c1ccc(N(C)C)cc1)c1c(O)ccc2ccccc12 (configuration not stated),-5.2,-29%,-3.5%,11%,4.8%,0.4,-18%
C[C@H](CO)N1C[C@H](C)[C@@H](CN(C)S(C)(=O)=O)Oc2c(NC(=O)c3ccncc3)cccc2C1=O,-2.6,8%,-0.6%,.,-0.6%,.,5%
CC(=O)Nc1ccc(NC(=O)C(C)OC(=O)C2CC(=O)N(CCc3ccccc3)C2)cc1 (configuration not stated),-3.9,11%,1.4%,.,-1.4%,.,11%
CC1(c2ccccc2)NC(=O)N(CC(=O)N(c2ccccc2)C2CCS(=O)(=O)C2)C1=O (configuration not stated),-5.4,5%,-0.2%,.,-1.3%,.,-3%[15.4 µM]
CCOc1ccc2c(c1)c(C(C)=O)c(C)n2-c1ccccc1,-4.0,-20%,-3.8%,-17%,-0.9%,-1.5,-20%
CC(=O)OCc1nc2sc3c(c2c(=O)[nH]1)CCCC3,-2.9,-6%,-21%,-3%,-1.5%,0.7,?
CN(C)CCNc1ccc(-c2nn(C)c(=O)c3ccccc23)cc1[N+](=O)[O-],2.7,4%,.,10%,10%,0.3,-29%
CC(=O)Nc1ccc(NC(=O)CS(=O)(=O)c2cn(CC(=O)N3CCC(C)CC3)c3ccccc23)cc1,1.9,6%,0.4%,.,3.8%,.,2%[15.4 µM]
CC(=O)N1N=C(c2ccc(Br)cc2)CC1c1cn(C)c2ccccc12 (configuration not stated),-0.1,-7%,28µM*,-20%,10%,17,17%
O=C(Nc1cccc(NC(=O)c2ccco2)c1)c1cccc(Br)c1,0.8,-23%,3.4%,17%,1.9%,2.9,24%[15.4 µM]
N=c1n(CC(=O)O)c2ccccc2n1Cc1ccccc1Cl,0.2,9%,-5.8%,8%,-1.8%,3.8,12%
O=C(O)/C=C/C(=O)Nc1c(F)cccc1F,-1.6,10%,1.6%,-6%,0.4%,-1.7,-30%
COc1ccc2c(c1)CCCC2NS(=O)(=O)OCC(Cl)(Cl)Cl (configuration not stated),-0.7,-3%,-0.5%,-4%,11%,-2.0,5%
CCOC(=O)C1(Cc2ccccc2)CCN(Cc2ccc(C3CCCCO3)s2)CC1 (configuration not stated),-4.5,-5%,.,8%,3.8%,0.1,-5%[15.4 µM]
C=CCN(c1ccccc1)S(=O)(=O)c1ccc2c(c1)oc(=O)n2C,0.3,2%,-2.9%,14%,2.0%,8.7,-112%[inhibitor]
Oc1cccc(/C=N/Nc2cc(N3CCCC3)nc(N3CCCC3)n2)c1,0.5,-4%,-16%,-19%,?,2.1,-4%[15.4 µM]
O=C(c1cccc(COc2cccc3ccccc23)c1)N1CCCC1,0.8,?,-2.4%,-11%,-1.6%,8.9,-3%
CC(C)(C)c1ccc(C(=O)CCCSC2=C(C#N)C(c3ccco3)C3=C(CCCC3=O)N2)cc1 (configuration not stated),-3.2,-13%,-18%,50µM*,-26%[38.3 µM],6.5,-3%
Cc1ccccc1/C=N/NC(=O)c1ccc(-n2cnnn2)cc1,5.0,-14%,0.5%,.,4.7%,.,-25%
CCc1cc(=O)oc2c(C)c(OCC(=O)N3CC[C@@]4(O)CCCC[C@H]4C3)ccc12,-5.1,-8%,5.0%,6%,-0.1%,9.9,.
O=C(CSc1nnc(-c2ccncc2)o1)Oc1ccccc1,0.9,-7%,-2.9%,16%,0.1%,-0.2,0%
CC(C)(C)N1CC2(c3ccccc3)CN(C(C)(C)C)CC(c3ccccc3)(C1)C2=O,-3.5,1%,1.4%,4%,0.6%,-2.3,-45%[inhibitor]
COc1ccc(C(=O)NCCCN2CCCC2=O)cc1,-1.5,14%,-0.3%,-2%,0.9%,-0.2,-4%
CCOc1ccc(Oc2ccc(NC(=O)CSc3nncn3C)cc2)cc1,-0.2,0%,-11%,.,0.8%,.,0%
O=S(=O)(Nc1ccc(OC(F)(F)F)cc1)c1cccc2nonc12,-3.3,-6%,-2.9%,13%,2.0%,2.5,-1%[15.4 µM]
Cc1cc(NC(=O)Cc2csc(-c3ccccc3)n2)ccc1Br,5.8,-7%,37%,-20%,8.6%,-1.3,9%
CC(=O)Nc1nc(SCc2ccc(Cl)cc2Cl)n[nH]1,-1.4,-1%,1.6%,11%,-0.3%,4.4,-75%[inhibitor]
COc1ccccc1N1CCN(C(=O)c2cc3n(n2)C(C(F)(F)F)CC(c2ccco2)N3)CC1 (configuration not stated),-1.0,3%,-1.3%,-11%,1.8%,8.6,0%
O=C(NCCSc1c[nH]c2ccccc12)C1CC1,-1.2,18%,-11%,4%,0.2%,0.0,1%
C[C@@H]1[C@H]2CCCC[C@H]2CN(C(=O)OC(C)(C)C)[C@@H]1CC(=O)c1ccccc1,-0.8,-10%,-1.8%,.,?,.,.
COc1ccc(S(=O)(=O)NC(C)C(=O)N2CCCCCC2)cc1 (configuration not stated),1.9,7%,-11%,-4%,1.3%,1.6,-5%[15.4 µM]
O=C(NCc1ccco1)/C(=C\c1ccc(F)cc1)NC(=O)c1ccco1,-4.7,8%,-5.4%,-9%,0.4%,-2.3,5%[15.4 µM]
CN(C)c1ccc(-c2cc3ccccc3c(=O)o2)cc1,4.1,-5%,-2.8%,.,2.2%,.,?
COc1ccccc1N(C)S(=O)(=O)c1ccc(C(=O)Nc2cccc(Br)c2)cc1,-0.2,-20%,.,.,-0.8%,.,17%
O=C(Nc1ccccc1[N+](=O)[O-])c1cc2ccccc2nc1Cl,-0.1,-3%,-0.8%,6%,6.1%,-2.6,33%
CC(=O)Nc1cc(C(=O)N2CCCC2)ccc1S(=O)(=O)c1ccc(Cl)cc1,-0.5,?,-1.1%,5%,2.2%[38.3 µM],2.9,-4%
NNC(=O)CN(CCc1ccccc1)S(=O)(=O)c1ccc(Cl)cc1,-1.1,6%,.,12%,-1.3%,3.6,-25%
CCCCN1CN(S(=O)(=O)c2ccc(OC)cc2)c2nc3ccccc3nc21,1.0,-11%,4.5%,-22%,0.7%,?,-3%
Cc1cc(C(=O)O)cc(S(=O)(=O)N2CCOCC2)c1C,-0.5,7%,0.3%,-2%,-0.2%,3.0,26%
COc1cc(NC(=O)COC(=O)c2ccc(S(=O)(=O)N3CC(C)CC(C)C3)cc2)c(C)cc1[N+](=O)[O-] (configuration not stated),-8.3,0%,-1.8%,13%,1.6%,-1.9,5%[15.4 µM]
Cc1ccc(=O)n(C(C(=O)NCc2ccco2)C(=O)c2ccc(F)cc2)c1 (configuration not stated),-1.5,7%,2.0%,14%,-1.1%,-0.3,7%
O=C(NC(=S)Nc1cc(C(F)(F)F)ccc1N1CCOCC1)c1ccco1,4.6,-16%,.,15%,0.4%,0.1,17%
O=C(NC1CCCCC1)N1CCN(c2nc(-c3ccccc3)cs2)CC1,0.7,?,-7.2%,-10%,-0.8%,0.0,9%[15.4 µM]
O=c1c2ccccc2nc(SCc2ccc([N+](=O)[O-])cc2)n1-c1ccccc1,2.8,-3%,-3.2%,9%,6.5%[38.3 µM],-0.3,4%
CNC(C)c1cc(OC)ccc1OC (configuration not stated),-1.6,9%,-2.4%,12%,-2.0%[38.3 µM],-0.3,7%
O=C(NC(c1ccccc1)c1ccccc1)N1CCOCC1,-4.1,11%,.,6%,1.0%,0.7,-3%[15.4 µM]
CC(C)(C)Cc1c(-c2cccc(Br)c2)nc2ccc(Br)cn12,-11,.,-15%,.,-0.6%,.,.
COc1cccc(NC(=O)Cn2cc(C(=O)C3CC3)c3ccccc32)c1,3.9,2%,-4.0%,.,4.0%,.,-5%[15.4 µM]
CCOC(=O)N1CCc2c(sc(NC(=O)CN3CCOCC3)c2C(=O)Nc2ccccc2)C1,-4.7,?,.,-3%,-0.2%,-0.3,12%[15.4 µM]
CC1(C(=O)NCCc2ccccc2)Cc2c(-c3ccccc3)ccnc2O1 (configuration not stated),-10.0,.,-2.9%,.,5.9%,.,.
COc1ccc(CCNC(=O)CCc2nc3sc4c(c3c(=O)[nH]2)CCCC4)cc1,-6.7,-18%,-3.5%,-6%,1.0%,23,-9%
COc1ccc(CNC2CCCc3ccccc32)c(OC)c1 (configuration not stated),-3.1,17%,.,-19%,-0.1%,-4.6,-5%
CN(C)Cc1ccccc1-c1cncnc1NCc1cccnc1,.,.,.,?,-0.6%,-7.0,.

# Not a hit list; any-hit rate near 5.1%.
